UCH37 inh: inhibitors of human deubiquitinating enzyme UCH37; purified proteasome/UCH37, Ub-AMC cleavage fluorescence; inhibition, % (no concentration beside the values); actives 0.33% (n = 330,000); AID 588478;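 active = mean of two replicates above 20%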;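 note: 0% = compound-free wells with enzyme and 100% = wells lacking proteasome; stock transfer was 100 nL into about 20 µL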
Target sequence (Q9Y5K5 whole entry, looked up): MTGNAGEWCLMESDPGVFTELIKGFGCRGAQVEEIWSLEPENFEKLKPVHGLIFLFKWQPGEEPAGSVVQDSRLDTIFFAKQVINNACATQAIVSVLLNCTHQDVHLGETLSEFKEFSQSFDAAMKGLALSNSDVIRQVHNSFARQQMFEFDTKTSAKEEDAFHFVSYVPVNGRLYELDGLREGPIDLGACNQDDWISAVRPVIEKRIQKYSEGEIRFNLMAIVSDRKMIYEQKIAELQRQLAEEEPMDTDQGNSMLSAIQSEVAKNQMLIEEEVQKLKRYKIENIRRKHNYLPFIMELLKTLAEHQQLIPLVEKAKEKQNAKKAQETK
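Material: human UCH37 enzyme supplied as purified proteasome complex / Amount: 0.15 nM proteasome as dispensed / Buffer or medium: pH 7.4 Tris-HCl (50 mM) with ovalbumin, ATP-MgCl2, DTT / Times: preincubation 30 min, reaction 25 min, room temperature / Technique: AMC fluorescence from Ub-AMC cleavage, excitation 355 nm, emission 460 nm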
HNF4A DNA FP: change in binding of human HNF4 alpha to DNA. activity change, % at 10 µM. actives 0.3% (n = 360,000). P41235. AID 1224865. HNF4a-FITC DNA binding, fluorescence polarization, 1 h; in the data active = activity change above about 30%, passing the limit was not always enough;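 note: controls were the assay level and a saturating level of protein; the project sought stronger binding though the title names inhibitors; some compounds called inactive have numbers as strong as hits; positive values seem to mean higher polarization but the record does not say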
Ecoli rRNA inh: selective bacterial rRNA inhibition in E. coli | E. coli WT GFP vs humanized-ribosome RFP mutants, fluorescence, 24 h; active compounds read low; DMSO median 0, no signal -100 | GFP signal change (wild-type ribosome), % (concentration not given with the values) | actives 1.6% (n = 350,000) | AID 720706;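 active = significant combined selectivity score with lowered wild-type GFP, culture density cut under 30%, mutant RFP and density less affected; inactive = any of these conditions unmet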; note: one replicate is shown; some compounds called inactive have numbers as strong as hits
Ecoli growth: E. coli growth inhibition. Escherichia coli growth, OD600, 23 h; active compounds read low. OD600 absorbance (test concentration not listed). actives 0.21% (n = 330,000);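 active = OD600 absorbance below the run mean of sample wells minus 3.6 SD, in any replicate, cut at about 0.56 in these data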;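 note: stock transfer was 300 nL into about 60 µL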
ALR H2O2 inh: human ALR oxidase inhibition via reduced H2O2; purified ALR, DTT oxidation, H2O2 HRP-luminol luminescence; inhibition, % (no concentration beside the values); actives 3.8% (n = 290,000); AID 485317;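 active = mean and each replicate at 75% or more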;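 note: stock transfer was 7.5 nL into about 7.5 µL; 0% = neutral wells and 100% = wells with inactivated enzyme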
FGF22 binding: FGF22 (human) thermal shift binding; actives 1.5% (n = 340,000); AID 651658; calls only at 9.99 µM; recombinant FGF22 thermal shift, SYPRO orange fluorescence; percent of sucrose octasulfate shift, DMSO zero; Q9HCT0;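 active = melting point raised past a set limit in the mean and every replicate; three in four hits are not shown here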
Target sequence (Q9HCT0 whole entry, looked up): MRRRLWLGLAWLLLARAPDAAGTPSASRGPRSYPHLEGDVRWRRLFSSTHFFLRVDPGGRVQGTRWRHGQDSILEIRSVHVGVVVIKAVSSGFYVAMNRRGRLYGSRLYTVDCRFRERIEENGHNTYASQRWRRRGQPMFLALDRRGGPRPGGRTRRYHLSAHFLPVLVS
Beta2AR agonist: human beta-2 adrenergic receptor agonism by FAP; Am2.2-beta2AR cells, FAP receptor internalization, flow cytometry; reference of the scale not given here; response, % (test concentration not listed); actives 0.43% (n = 340,000);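 active = response above a set limit, near 3 SD of response in nonfluorescent compounds, cut at about 42% in these data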;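 note: stock transfer was 100 nL into about 11 µL; a reference agonist was the positive control; negative values mostly stem from fluorescent compounds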
Target sequence (P07550 whole entry, looked up): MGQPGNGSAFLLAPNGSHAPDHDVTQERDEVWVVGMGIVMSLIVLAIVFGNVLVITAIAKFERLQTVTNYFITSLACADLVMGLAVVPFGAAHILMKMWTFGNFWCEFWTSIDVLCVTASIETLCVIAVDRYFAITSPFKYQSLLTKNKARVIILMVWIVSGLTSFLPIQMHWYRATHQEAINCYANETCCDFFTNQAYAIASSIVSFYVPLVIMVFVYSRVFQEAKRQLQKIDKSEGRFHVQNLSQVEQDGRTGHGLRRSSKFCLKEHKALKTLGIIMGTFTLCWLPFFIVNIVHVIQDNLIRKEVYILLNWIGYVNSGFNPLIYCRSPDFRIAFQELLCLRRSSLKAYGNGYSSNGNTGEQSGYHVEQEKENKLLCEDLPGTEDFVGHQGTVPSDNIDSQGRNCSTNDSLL
Ecoli rRNA inh OD600: recorded beside Ecoli rRNA inh, whose call it bears; OD600 change, %; measured here: OD600 growth;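 optical density of the mix in the first replicate; 0 = DMSO median and -100 = no signal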
Ecoli rRNA inh RFP: also measured in Ecoli rRNA inh; calls as there; RFP signal change, %; measured here: RFP humanized mutant strains;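 first replicate; 0 = DMSO median and -100 = no signal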
The depositor's hits bear a star; i = inactive; x = no result given.

SMILES	UCH37 inh	HNF4A DNA FP	Ecoli rRNA inh	Ecoli rRNA inh OD600	Ecoli rRNA inh RFP	Ecoli growth	ALR H2O2 inh	FGF22 binding	Beta2AR agonist
CCc1ccc(/C(C)=N/Nc2cc(Cl)nc(C)n2)cc1	x	3.5	x	x	x	x	1	x	2
CC(=O)N1CCc2nc3ccccc3cc21	x	8.9	3	-1	2.2	x	x	i	x
NC(=O)CC(NC(=O)Cc1cccc2ccccc12)c1ccc(NC2CCC2)c([N+](=O)[O-])c1 (configuration not stated)	3.8	15	2	-2	-7.2	0.73	-7	i	9
O=C(NNc1ccccc1[N+](=O)[O-])Nc1ccccc1	8.5	-0.1	x	x	x	0.69	-1	i	5
CNC(=O)Nc1ccc(S(N)(=O)=O)cc1	0.1	2.1	-3	14	2.1	0.63	18	i	-7
Cc1ccc(CSC2=Nc3ccccc3C3=NC(CCC(=O)NCc4ccco4)C(=O)N23)cc1 (configuration not stated)	-14	1.0	x	x	x	0.73	43	x	6
Cc1ccc(/C(O)=C/C(=O)C(=O)NNC(=O)C(O)(c2ccccc2)c2ccccc2)cc1	6.7	-0.3	x	x	x	0.69	1	x	8
COc1cccc(NC(=S)N(CCN(C)C)C(C)c2ccco2)c1 (configuration not stated)	0.6	8.5	x	x	x	0.71	-13	x	-2
N#Cc1ccccc1CN1C(=O)NC(Cc2c[nH]c3ccccc23)C1=O (configuration not stated)	-0.7	-4.7	-6	-8	1.6	0.74	0	i	9
CC(C)CCN1C(N(C)C)=NC[C@@H]1C	-0.4	-0.4	9	6	-1.1	x	-13	i	7

Single records (already shown):
Shown for NC(=O)CC(NC(=O)Cc1cccc2ccccc12)c1ccc(NC2CCC2)c([N+](=O)[O-])c1 (configuration not stated) = UCH37 inh: 3.8; HNF4A DNA FP: 15; Ecoli rRNA inh: 2; Ecoli rRNA inh OD600: -2; Ecoli rRNA inh RFP: -7.2; Ecoli growth: 0.73; ALR H2O2 inh: -7; FGF22 binding: i; Beta2AR agonist: 9
Shown for Cc1ccc(CSC2=Nc3ccccc3C3=NC(CCC(=O)NCc4ccco4)C(=O)N23)cc1 (configuration not stated) = UCH37 inh: -14; HNF4A DNA FP: 1.0; Ecoli rRNA inh: x; Ecoli rRNA inh OD600: x; Ecoli rRNA inh RFP: x; Ecoli growth: 0.73; ALR H2O2 inh: 43; FGF22 binding: x; Beta2AR agonist: 6
Shown for CC(C)CCN1C(N(C)C)=NC[C@@H]1C = UCH37 inh: -0.4; HNF4A DNA FP: -0.4; Ecoli rRNA inh: 9; Ecoli rRNA inh OD600: 6; Ecoli rRNA inh RFP: -1.1; Ecoli growth: x; ALR H2O2 inh: -13; FGF22 binding: i; Beta2AR agonist: 7

Next part
SMILES	UCH37 inh	HNF4A DNA FP	Ecoli rRNA inh	Ecoli rRNA inh OD600	Ecoli rRNA inh RFP	Ecoli growth	ALR H2O2 inh	FGF22 binding	Beta2AR agonist
O=C(COc1ccc2ccccc2c1)NNC(=O)Nc1ccc(F)cc1F	-5.5	-1.5	1	2	0.1	0.72	-5	i	-10
CCCOc1ccc(CCC(=O)N/N=C/c2ccco2)cc1	x	1.0	-10	-6	0.6	x	x	i	-9
O=C(NCCc1ccccc1)c1ccc(Cl)c([N+](=O)[O-])c1	0.9	-3.3	x	x	x	0.69	-4	x	6
COc1ccccc1C(=O)NC(=O)COC(=O)CCS(=O)(=O)c1ccc(C)cc1	x	1.7	2	15	0.4	x	2	i	5
CCCCC(=O)Nc1ccc(N2CCCC2)cc1	6.6	8.8	x	x	x	0.74	-5	x	9
O=C1c2cccc(OCC(=O)N3CCCc4ccccc43)c2CCN1Cc1cccnc1	0.4	2.5	-26*	-7.5*	-0.9*	0.71	0	i	7
COc1ccc(C(=O)c2sc3nc(-c4ccccc4)ccc3c2N)cc1OC	-1.1	69*	x	x	x	0.73	-3	x	-81
Cc1cc(-c2nc(C)c(C(=O)NN)s2)no1	1.3	11	-9	5	0.2	0.64	2	i	-1
O=C(CSC1=Nc2ccccc2C2=NC(CC(=O)NCc3ccco3)C(=O)N12)NCC1CCCO1 (configuration not stated)	-9.8	3.4	x	x	x	0.7	-11	x	-6
CCOC(=O)/C(C#N)=C/Nc1ccsc1C(=O)OC	-71	1.2	1	4	-1.9	0.69	x	i	-2
Cc1cc(C(F)F)n2nc(C(=O)Nc3ccc(S(=O)(=O)N4CCCCCC4)cc3)nc2n1	-11	-0.4	x	x	x	0.72	-2	x	-12
COc1cccc(N2CCN(C(=O)CCS(=O)(=O)c3ccc4c(c3)oc(=O)n4C)CC2)c1	4.1	0.2	10	14	0.6	0.7	98*	i	1
Cc1ccc(CN2CCNC(=O)C2CC(=O)N2CCN(c3ncccn3)CC2)o1 (configuration not stated)	-0.3	2.2	5	2	0.8	0.7	-1	i	-2
O=C(NCC(=O)N(Cc1cccs1)C(C(=O)NC1CCCCC1)c1ccco1)c1cccs1 (configuration not stated)	1.4	2.1	x	x	x	0.69	0	x	-7
O=C(CSc1nnc(-c2ccco2)n1Cc1ccccc1)NCc1ccccc1	1.0	4.2	x	x	x	0.74	4	x	-13
COc1ccc(OCCN2CCN(S(=O)(=O)c3ccccc3C(F)(F)F)CC2)cc1	-3.7	-27	5	-39	1.6	0.64	x	i	-12
Cc1ccc(CSCC(=O)Nc2ccc(F)cc2)cc1	4.1	4.7	x	x	x	0.73	-8	i	3
Cc1ccc(C)n1-c1ncc(Br)cn1	-7.7	4.5	4	5	-2.6	0.66	-4	i	-1
CC1CC(N(C(=O)c2ccccc2Cl)c2ccccc2)c2ccccc2N1 (configuration not stated)	4.0	-0.4	x	x	x	0.78	7	x	2
CC(=O)Nc1cccc(C(=O)N2CCN(S(=O)(=O)c3ccc4ccccc4c3)CC2)c1	3.1	-2.7	-2	-4	5.0	0.69	-11	i	-8
COc1cc(/C=N/N2CCN(Cc3ccc(Cl)cc3)CC2)cc(Br)c1O	x	-0.4	-15	-45	-2.0	x	91*	i	8
COc1ccc(OC)c(C(=O)c2ccc(Cl)cc2)c1	2.3	0.7	-21	-17	-5.5	0.69	x	i	-4
Cc1c(N=C2N=C(NC(=O)c3cccs3)c3ccccc32)c(=O)n(-c2ccccc2)n1C	8.5	48	-9	-6	-14	0.72	33	i	-22
CC(C)N1C(=O)CC(Nc2ccc(N3CCOCC3)cc2)C1=O (configuration not stated)	1.8	0.9	x	x	x	0.69	99*	x	0
Nc1nonc1-c1nc2ccccc2n1CC(=O)N1CCCCC1	0.5	5.0	x	x	x	0.69	-1	x	0
O=C(NCCC1CCCCN1S(=O)(=O)c1ccc(F)cc1)C(=O)NCc1cccnc1 (configuration not stated)	0.4	3.6	-2	2	-0.4	0.68	0	i	4
Fc1ccc(-n2c(-c3ccco3)n[nH]c2=S)cc1	-2.5	0.9	10	10	3.5	0.67	65	i	-1
COC(=O)C1CCN(c2ccc(C(N)=O)cc2[N+](=O)[O-])CC1	7.3	-3.9	-7	-1	-12	0.71	-6	i	3
CCOC(=O)c1ccc(-c2c(C(=O)OCC)oc3cc(O)c(CC)cc3c2=O)o1	5.5	-1.6	x	x	x	0.71	1	x	7
O=C(C1CCN(C2CCN(Cc3ccc4c(c3)CCO4)CC2)CC1)N1CCCC1	5.7	-1.0	4	-1	-5.6	0.66	-6	i	4

An excerpt from above in order of the Beta2AR agonist value, largest number first.
molecule,UCH37 inh,HNF4A DNA FP,Ecoli rRNA inh,Ecoli rRNA inh OD600,Ecoli rRNA inh RFP,ALR H2O2 inh,FGF22 binding,Beta2AR agonist
Cc1ccc(/C(O)=C/C(=O)C(=O)NNC(=O)C(O)(c2ccccc2)c2ccccc2)cc1,6.7,-0.3,x,x,x,1,x,8
COc1ccccc1C(=O)NC(=O)COC(=O)CCS(=O)(=O)c1ccc(C)cc1,x,1.7,2,15,0.4,2,i,5
O=C(NCC(=O)N(Cc1cccs1)C(C(=O)NC1CCCCC1)c1ccco1)c1cccs1 (configuration not stated),1.4,2.1,x,x,x,0,x,-7

Next section:
SMILES	UCH37 inh	HNF4A DNA FP	Ecoli rRNA inh	Ecoli rRNA inh OD600	Ecoli rRNA inh RFP	Ecoli growth	ALR H2O2 inh	FGF22 binding	Beta2AR agonist
COc1ccc(NC(=O)N2CCCC(c3nc(-c4ccc(C(C)C)cc4)no3)C2)cc1 (configuration not stated)	4.9	-0.8	x	x	x	0.72	-6	x	12
O=C(Nc1ccc(S(=O)(=O)Nc2cnc3ccccc3n2)cc1)c1cc(F)c(F)cc1Cl	-13	4.2	-10	-27	-0.9	0.63	x	x	6
N#Cc1cc(-c2ccccc2)nc(Oc2ccccc2)n1	-0.7	0.3	-38	-53	18	0.7	-4	x	26
O=C(C1CCCCC1)N1C[C@H](n2cc(C3CC3)nn2)[C@@H](O)C[C@@H]1c1ccccc1	x	1.1	0	0	-1.4	x	x	i	x
O=C(c1ccc(CN2CCOCC2)cc1)N1CCN(Cc2ccccc2)CC1	2.5	4.2	x	x	x	0.7	-4	x	-5
Cc1cc(C(=O)N/N=C/c2ccc(-c3ccccc3Cl)o2)n[nH]1	x	0.7	-25	39	12	x	19	i	17
CC(=O)c1ccc(NS(=O)(=O)c2cc3c(cc2C)N(C)CCO3)cc1	3.2	2.5	2	1	1.5	0.69	8	i	6
Cc1c(C(=O)NCc2ccccc2)oc2ccc(S(=O)(=O)N3CCCC3)cc12	2.6	0.4	6	6	-1.7	0.71	-3	i	14
O=c1c(-c2ccccc2)nnc2sc(COc3ccc(Br)cc3)nn12	0.8	1.7	12	13	-0.2	0.67	-7	i	19
CC(C)(C)c1cc(CN2CCOCC2)c(C(=O)O)o1	2.4	-0.3	x	x	x	0.7	-12	x	3
COC(=O)C1CC2=C(CCC2=O)N(c2ccccc2)C1=O (configuration not stated)	x	1.6	22	21	4.0	x	x	i	3
CC1(OC(=O)C2CCCC2)C(=O)C=C2C=C(c3ccsc3)N(Cc3ccco3)C=C2C1=O (configuration not stated)	1.7	-6.1	x	x	x	0.73	-2	x	-18
NC(=O)C1CCN(C(=O)c2cc(S(=O)(=O)N3CCOCC3)ccc2Cl)CC1	0.4	0.5	-5	6	-4.1	0.66	-1	i	4
COc1ccccc1NC(=S)NC(=O)c1ccc(Cn2cc(Br)cn2)cc1	5.6	-1.8	3	16	0.8	0.67	-39	i	-28
O=C(Nc1cccnc1)c1ccc([N+](=O)[O-])s1	10.0	2.8	-57	-77	-16	0.07*	-25	i	-3
Cc1sc2nc(CN3CCOCC3)nc(NS(=O)(=O)c3ccccc3)c2c1C	3.9	-3.2	x	x	x	0.76	-3	x	1
COc1ccc(CCNC(=O)C2CCC(=O)N(C3CCCCCC3)C2)cc1 (configuration not stated)	0.7	0.7	7	0	-0.4	0.63	0	i	-2
Cc1c(C(=O)NC(=S)Nc2ccc(NC(=O)c3cccs3)cc2)oc2ccccc12	2.5	-2.4	-6	16	6.8	0.69	-15	i	-7
COc1ccc(C(c2oc(CO)cc(=O)c2O)c2oc(CO)cc(=O)c2O)cc1OC	2.9	-1.5	-8	-7	7.8	0.66	5	i	-1
CCn1ncc(C2=NOC(C(=O)Nc3cccnc3)C2)c1C (configuration not stated)	1.4	2.8	x	x	x	0.7	1	x	12
COc1ccccc1-c1nnc(NC(=O)CSc2nncn2C)s1	-7.9	3.2	-3	6	-1.1	0.68	4	i	-8
CCC(=O)N/C(=N/c1nc(C)cc(C)n1)Nc1ccccc1	7.4	7.9	19	10	2.3	0.66	1	i	-6
Cc1ccc(CS(=O)(=O)CCC(=O)NCCCOC(C)C)cc1	0.2	-1.2	x	x	x	0.7	-4	x	1
COc1ccc(-c2cn(CCc3c[nH]c4ccccc34)nn2)cc1	-1.4	2.1	-3	0	-8.9	0.65	-3	i	25
CCCCN1C(=S)NC[C@@H]1Cc1ccccc1	5.5	-2.9	-2	-15	2.4	x	-8	i	3

This is a subset; the hit share may differ from the screen's.
